# miR-21 FLuc = qHTS Assay for Modulators of miRNAs and/orActivators of miR-21. HeLa miR-21 FLuc reporter, luciferase, 48 h. Potency, µM (series often up to 38.3 µM), without a hit: top-dose reporter change, positive = more light. 340,000 tested, under 10 active; active = well fitted rising curve with a large enough effect; inconclusive = small, poorly fitted or top-dose-only effect; inactive = no such curve, though single readings can be large or run the other way;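 also: % of control where 0% means no effect; miR-21 action dims this reporter so a rising signal means less miR-21 action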
#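 HeLa cells endogenously expressing miR-21, stably carrying CMV-driven firefly luciferase with a downstream miR-21 binding site, 2000 cells/well. Titrations up to approximately 40 uM, 48 hours; luciferase luminescence read.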
# GLA inh pH 4.5 = qHTS Assay for Inhibitors of Human alpha-Galactosidase at pH 4.5; Alpha-galactosidase A (Homo sapiens), P06280; purified enzyme, 4-MU-alpha-Gal fluorescence, pH 4.5; activity change, negative = inhibition, % at 105 µM; 230,000 tested, under 10 active; inconclusive = small, poorly fitted or top-dose-only inhibition, or a rising curve; inactive = flat fitted curve, though single readings scatter; no compound was filed as active;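 also: 0% = full activity with enzyme and -100% = basal without enzyme; dose as in the result columns while the protocol names 77 µM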
# Rango complex inh = qHTS Assay for Inhibitors of Rango (Ran-regulated importin-beta cargo) - Importin beta complex formation | Rango CFP/YFP FRET sensor + importin beta, 45 min | Potency, µM (top dose mostly 92.2 µM), without a hit: top-dose inhibition of complex formation | actives 0.031% (n = 340,000) | Importin subunit beta-1 (Homo sapiens), Q14974; active = rising FRET ratio curve, often small or poorly fitted; inconclusive = mostly compound fluorescence or quenching in the first reads; inactive = flat curves in all reads;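 also: potency is read from the fitted curve at half-maximal effect; 0% = DMSO wells and 100% = buffer wells lacking importin beta; nearly all actives have a fitted effect of over 15% in size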
# Target sequence (Q14974 whole entry, looked up): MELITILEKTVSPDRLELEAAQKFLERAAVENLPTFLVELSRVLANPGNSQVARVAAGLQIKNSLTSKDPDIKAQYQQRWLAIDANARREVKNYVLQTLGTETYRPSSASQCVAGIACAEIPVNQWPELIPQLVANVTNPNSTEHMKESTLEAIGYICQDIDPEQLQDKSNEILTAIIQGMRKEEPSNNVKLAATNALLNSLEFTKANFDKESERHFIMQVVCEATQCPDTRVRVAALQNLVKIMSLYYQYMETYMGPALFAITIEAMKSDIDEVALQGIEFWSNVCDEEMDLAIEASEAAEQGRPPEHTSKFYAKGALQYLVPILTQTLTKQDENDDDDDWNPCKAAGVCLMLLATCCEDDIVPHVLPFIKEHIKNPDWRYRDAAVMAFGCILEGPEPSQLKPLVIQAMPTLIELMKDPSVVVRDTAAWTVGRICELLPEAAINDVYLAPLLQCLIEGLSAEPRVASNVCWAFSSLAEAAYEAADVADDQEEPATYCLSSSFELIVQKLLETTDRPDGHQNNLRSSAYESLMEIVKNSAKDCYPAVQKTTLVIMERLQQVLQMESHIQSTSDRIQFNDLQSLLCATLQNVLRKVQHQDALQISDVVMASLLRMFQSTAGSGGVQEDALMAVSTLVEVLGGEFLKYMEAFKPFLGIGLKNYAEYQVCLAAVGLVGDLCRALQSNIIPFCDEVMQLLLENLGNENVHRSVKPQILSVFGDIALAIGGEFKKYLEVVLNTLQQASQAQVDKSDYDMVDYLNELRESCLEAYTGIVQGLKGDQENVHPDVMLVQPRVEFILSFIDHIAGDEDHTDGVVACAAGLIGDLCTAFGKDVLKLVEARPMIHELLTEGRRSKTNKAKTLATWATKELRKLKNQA
#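 FRET biosensor Rango (snurportin 1 IBB between N-terminal EYFP and C-terminal Cerulean), 50 nM in PBS/1 mM DTT/0.02% Tween-20/0.1% BSA, preincubated 5 min RT with compound; 0.125 microM importin beta added, 45 min RT, CFP/YFP FRET ratio read.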
# Rango release inh = qHTS Assay for Inhibitors of RanGTP induced Rango (Ran-regulated importin-beta cargo) - Importin beta complex dissociation; Biochemical FRET Rango-importin beta, RanGTP-induced dissociation; Snurportin-1 (Homo sapiens) + GTP-binding nuclear protein Ran (Homo sapiens) + Importin …; actives 0.071% (n = 340,000); Potency, µM (highest dose often 46.1 µM), inactives show top-dose activity change, negative = inhibition; AID 540253, 2011; active means falling FRET ratio curve, often poorly fitted, with flat reads before Ran was added; inconclusive means other falling curves, or compound fluorescence or quenching; inactive means flat or rising ratio curve;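 also: potency is read from the fitted curve at half-maximal effect; % of control where 0% means no effect; nearly all actives have a fitted effect of over 45% in size; -100% = wells without RanGTP and RCC1; the record marks most hits as doubtful in a second field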
#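 Rango FRET biosensor (snurportin-1 IBB flanked by N-terminal EYFP and C-terminal CFP10) at 0.1 uM, with 0.25 uM importin beta in PBS, 1mM DTT, 0.02% Tween-20, 0.1% BSA. 0.6 uM Ran, 2mM GTP and 0.2 uM RCC1 were then added for 45 min at room temperature. Inhibition read as loss of FRET rise.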
# Active calls of the source: *; ? = inconclusive; . = no result given; & = joins results of further samples. Some of the compounds tested (hit frequency here may not be typical).
# Abbreviations: A = miR-21 FLuc; B = GLA inh pH 4.5; C = Rango complex inh; D = Rango release inh
> Clc1ccc(-c2cnn3c(-c4ccncc4)ccnc23)cc1
  A = -51%	B = 0	C = -1.0%	D = 2%
> N=C(c1cccc([N+](=O)[O-])c1)N1CCCCCC1
  A = -1%	B = -4	C = 0.2%	D = 8%
> CC(Sc1nnc(CNc2cccc3ccccc23)n1-c1ccccc1)C(=O)N/N=C/c1ccco1 (centres undefined)
  A = -3%	B = 3	C = 5.2%	D = 1%
> O=C(NC(=S)Nc1cccc2[nH]ncc12)c1ccccc1
  A = -16%	B = -5	C = ?	D = -7%
> COc1cccc(/C=C/C(=O)OCC(=O)c2ccc(C)c(C)c2)c1OC
  A = .	B = .	C = -1.9%	D = 12%
> Cc1nc2n(n1)C(c1ccccc1)C1=C(CC(c3ccco3)CC1=O)N2 (centres undefined)
  A = 1%	B = 9	C = -1.7%	D = 16%
> NC(=O)CSc1oc(-c2ccco2)nc1S(=O)(=O)c1ccc(F)cc1
  A = 12%	B = .	C = -0.6%	D = 3%
> CC(Oc1ccc(F)cc1)C(=O)Nc1cc(S(=O)(=O)N2CCOCC2)ccc1N1CCCCC1 (centres undefined)
  A = .	B = .	C = -1.6%	D = -20%
> CC1(c2cnc(Nc3ccccc3)s2)CCC(=O)O1 (centres undefined)
  A = -22%	B = 9	C = -1.6%	D = -3%
> Cc1ccc(N2CCN(/N=C/C(Cl)=C/c3ccccc3)CC2)cc1
  A = 0%	B = 0	C = -1.8%	D = 34%
> O=C(CNC(=O)C1CC(=O)N(c2cccc3ccccc23)C1)Nc1ccccc1Br (centres undefined)
  A = .	B = .	C = -1.5%	D = -9%
> COc1cc(NC(=O)c2cc(C)no2)c(OC)cc1Cl
  A = 7%	B = .	C = 0.5%	D = -3%
> O=c1oc2ccccc2c(Nc2ccc(F)cc2)c1[N+](=O)[O-]
  A = 3%	B = 0	C = 0.2%	D = 8%
> Cc1ccc(C)c(Oc2nnnn2-c2ccccc2)c1
  A = -9%	B = 1	C = 1.2%	D = 11%
> Clc1cccc(Cl)c1-c1noc(CN2CCOCC2)n1
  A = -4%	B = 0	C = 0.3%	D = 3%

# Looked up by compound from the entries so far, 7 records:
# Abbreviations: A = miR-21 FLuc; B = GLA inh pH 4.5; C = Rango complex inh; D = Rango release inh
> COc1cc(NC(=O)c2cc(C)no2)c(OC)cc1Cl
  A = 7%	B = .	C = 0.5%	D = -3%
> O=c1oc2ccccc2c(Nc2ccc(F)cc2)c1[N+](=O)[O-]
  A = 3%	B = 0	C = 0.2%	D = 8%
> Cc1ccc(C)c(Oc2nnnn2-c2ccccc2)c1
  A = -9%	B = 1	C = 1.2%	D = 11%
> Clc1cccc(Cl)c1-c1noc(CN2CCOCC2)n1
  A = -4%	B = 0	C = 0.3%	D = 3%
> Cc1ccc(N2CCN(/N=C/C(Cl)=C/c3ccccc3)CC2)cc1
  A = 0%	B = 0	C = -1.8%	D = 34%
> NC(=O)CSc1oc(-c2ccco2)nc1S(=O)(=O)c1ccc(F)cc1
  A = 12%	B = .	C = -0.6%	D = 3%
> Clc1ccc(-c2cnn3c(-c4ccncc4)ccnc23)cc1
  A = -51%	B = 0	C = -1.0%	D = 2%

# The listing continues.
# Abbreviations: A = miR-21 FLuc; B = GLA inh pH 4.5; C = Rango complex inh; D = Rango release inh
> CCCS(=O)(=O)n1nc(-c2ccc(Br)cc2)cc1N
  A = -45%	B = -7	C = 2.4%	D = -14%
> Cc1ccc(-n2cc(CNC(C)Cn3cncn3)c(-c3ccc(F)cc3)n2)cc1 (centres undefined)
  A = -17%	B = 0	C = -5.4%	D = 16%
> N/C(=N\OS(=O)(=O)c1ccc(Cl)cc1)c1cccnc1
  A = -3%	B = -16	C = -2.1%	D = -10%
> Cc1ccc(SCCNS(=O)(=O)c2ccc(F)cc2)cc1
  A = 1%	B = 0	C = 2.9%	D = 0%
> CC1(c2nnc(Cc3ccccc3)o2)CC(c2ccc(F)cc2)=NO1 (centres undefined)
  A = .	B = .	C = -0.8%	D = 1%
> COc1ccc(C)cc1NC(=O)c1cnc2sccn2c1=O
  A = -12%	B = 7	C = .	D = .
> CCCOC(=O)CC1C(=O)NCCN1Cc1ccccc1C (centres undefined)
  A = .	B = .	C = 4.3%	D = -9%
> CN(C)c1nc(Oc2ccc(=O)n(-c3ccccc3)n2)nc(N2CCOCC2)n1
  A = -9%	B = -26	C = -1.5%	D = 15%
> [O-][n+]1ccccc1SC/C=C/c1ccccc1
  A = -47%	B = 1	C = -1.6%	D = -4%
> CCN(CC(=O)Nc1c(F)cccc1F)C(=O)c1ccc(S(=O)(=O)N2CCCCCC2)cc1
  A = .	B = .	C = -0.1%	D = -1%
> CC1CCN(CCCNC(=O)c2ccc3c(=O)n(Cc4ccc(Cl)cc4)c(=S)[nH]c3c2)CC1
  A = 11%	B = -6	C = 6.0%	D = -15%
> O=C(O)C1OC(Oc2cc3oc(-c4ccccc4)cc(=O)c3c(O)c2O)C(O)C(O)C1O (centres undefined)
  A = -28%	B = 2	C = ?	D = -10%
> CCC1=NN(C(=O)C(=O)Nc2ccccc2OC)C(O)(C(F)(F)F)C1 (centres undefined)
  A = 0%	B = 7	C = -3.0%	D = 0%
> Cn1nc(-c2ccc(Cl)cc2)c2cc(C(=O)N3CCOCC3)sc21
  A = -10%	B = 1	C = 6.4%	D = -16%
> COc1cccc(-n2nnc3c(=O)n(CC(=O)N4CCC(C)CC4)cnc32)c1
  A = -12%	B = 1	C = 0.5%	D = -21%
> O=C1CSC(=S)N1CC1CCCO1 (centres undefined)
  A = -1%	B = 5	C = 0.1%	D = -6%
> COc1ccc(N=c2scc(-c3ccc(OC)cc3)n2CCO)cc1
  A = -12%	B = 2	C = 9.4%	D = 2%
> CCCCN(C)CCn1c(=S)[nH]c2ccc(N3CCOCC3)cc2c1=O
  A = 0%	B = -5	C = ?	D = ?
> CCCC(=O)N1c2ccccc2C(N(C(C)=O)c2ccccc2)CC1C (centres undefined)
  A = 0%	B = 1	C = -1.9%	D = -3%
> O=[N+]([O-])c1ccc2c(c1)nnn2-c1ccccc1
  A = -16%	B = .	C = 0.3%	D = -12%
> CCO[C@H]1OC(C(=O)NCc2nc3ccccc3[nH]2)=C[C@@H](c2ccccc2)[C@@H]1CCCO
  A = 13%	B = 0	C = -0.3%	D = 10%
> Cc1ccc(Sc2ccc(CO)cc2[N+](=O)[O-])cc1
  A = -18%	B = -5	C = -0.8%	D = 11%
> COc1ccc2ccccc2c1CNC(C)c1ccccc1 (centres undefined)
  A = 8%	B = .	C = 2.5%	D = 23%
> CC(C)COc1ccc(C(=O)OCC(=O)N(C)CC(=O)Nc2ccc(F)cc2)cc1
  A = .	B = .	C = -1.1%	D = -9%
> Cc1ccc(/C=N/NC(=O)CNC(=O)c2ccc(C)c([N+](=O)[O-])c2)o1
  A = -2%	B = -1	C = -4.1%	D = 14%
> O=C(COC(=O)/C=C/c1ccc2ccccc2n1)NNC(=O)c1ccc([N+](=O)[O-])cc1
  A = .	B = .	C = 2.2%	D = 19%
> Cc1ccc(N(C)C(=O)N2CCN(S(=O)(=O)c3ccc4ccccc4c3)CC2)cc1
  A = -1%	B = 0	C = -0.9%	D = -12%
> O=C(Nc1ccc(S(=O)(=O)NCCc2ccccc2)cc1)c1ccco1
  A = -4%	B = -19	C = -0.2%	D = -4%
> Cc1ccc(OC(=O)c2cc(C)nn2C(C)(C)C)cc1
  A = -2%	B = 2	C = -0.7%	D = 2%
> CCN(CC)S(=O)(=O)c1cccc(C(=O)Nc2ccc(S(=O)(=O)NC3=NCCCCC3)cc2)c1
  A = .	B = .	C = 1.6%	D = -9%
> O=C(c1ccc(NC(=O)C(c2ccccc2)c2ccccc2)cc1)c1ccc(C(=O)O)c(C(=O)O)c1
  A = 2%	B = .	C = -1.7%	D = -14%
> Cc1cc(C)cc(C(=O)NCCC(=O)N2CCC3(CC2)NCCc2[nH]cnc23)c1
  A = -2%	B = .	C = 1.1%	D = -13%
> Cc1ccc(N2C(=O)NC(NS(=O)(=O)c3ccccc3)(C(F)(F)F)C2=O)cc1 (centres undefined)
  A = -4%	B = .	C = -1.6%	D = 27%
> COc1ccc(Cn2c(=N)c(C(=O)NC3CCCCC3)cc3c(=O)n4ccccc4nc32)cc1
  A = 0%	B = .	C = ?	D = -29%
> O=C(CN(c1ccc(Cl)c(C(F)(F)F)c1)S(=O)(=O)c1ccccc1)N1CCOCC1
  A = -6%	B = -12	C = -4.3%	D = -4%
> CSc1nc(N)c(NC(=O)c2ccc(Br)o2)c(=O)[nH]1
  A = -1%	B = .	C = -0.1%	D = -6%
> Cc1ccc(Cl)cc1N1CCN(C(=O)Cc2cn(C)c3ccccc23)CC1
  A = 29%	B = -8	C = -0.7%	D = -5%
> Cc1ccc(S(=O)(=O)N2CCCCC2C(=O)N2CCN(Cc3ccccc3)CC2)cc1 (centres undefined)
  A = -1%	B = 4	C = -1.3%	D = 6%
> COc1ccc(NC(=S)N(CCc2c(C)[nH]c3ccc(C)cc23)Cc2ccco2)cc1
  A = 3%	B = -4	C = -3.3%	D = 6%
> COc1ccc(CNC(=S)Nc2cccc(OC)c2)cc1
  A = -8%	B = .	C = -2.9%	D = 15%
> CCOC12CC(C)(C)CC(C)(CC3=C1C(=O)CC(C)(C)C3)C2 (centres undefined)
  A = -3%	B = 2	C = 6.4%	D = 0%
> O=C(O)c1cccc(-c2nnn(Cc3ccccc3)n2)c1
  A = -68%	B = 0	C = -0.5%	D = 9%
> O=C1C(=O)N(c2ccccn2)C(c2ccc(Br)cc2)/C1=C(/O)c1ccc(Br)cc1 (centres undefined)
  A = -15%	B = .	C = 0.9%	D = ?
> Cc1c(Br)c([N+](=O)[O-])nn1C(C)C(=O)NCc1cccs1 (centres undefined)
  A = -3%	B = 3	C = 0.3%	D = 9%
> COc1cc(C)c(S(=O)(=O)n2c([N+](=O)[O-])cnc2C)cc1C
  A = -5%	B = .	C = 2.8%	D = 0%
> CCOCCn1c(CN2CCN(CCO)CC2)nc2c1c(=O)n(C)c(=O)n2C
  A = -1%	B = .	C = -2.3%	D = 5%
> COc1cccc(CNC(=O)COc2cc(O)c3c(c2)OC(C)(C)CC3=O)c1
  A = -7%	B = .	C = 2.2%	D = -8%
> CCc1nnc(NC(=O)CSc2nnc(-c3cccnc3)n2CCc2ccccc2)s1
  A = -4%	B = 7	C = 1.4%	D = 11%
> C[N+]1(CN2C(=O)C3C4C=CC(C4)C3C2=O)CCCCC1 (centres undefined)
  A = 9%	B = -2	C = 4.4%	D = 1%
> O=C(Cc1cn(-c2ccccc2)nc1-c1ccccc1)N1CCCCC1
  A = 6%	B = .	C = 0.8%	D = 11%
> Cc1cccc(Nc2nnc(SCC(=O)NCC3CCCO3)s2)c1 (centres undefined)
  A = .	B = .	C = -0.2%	D = 9%
> O=C(CCCn1ncn2c(cc3occc32)c1=O)NCc1ccccc1F
  A = -4%&-12%	B = .	C = -1.5%	D = 4%
> COc1ccc(CC(=O)NCc2ccc3c(c2)cc(C)n3C)cc1OC
  A = -3%	B = -6	C = 0.7%	D = -9%
> COCc1ccc(CN2CCC(C(=O)Nc3cccc(-c4cccc(Cl)c4)c3)CC2)o1
  A = ?	B = .	C = 2.9%	D = 0%
> C[C@H](CO)N1C[C@H](C)[C@@H](CN(C)C(=O)Nc2ccccc2)Oc2c(NC(=O)C3CCCCC3)cccc2C1=O
  A = .	B = .	C = 3.3%	D = 0%
> Cn1c(=O)[nH]c(=O)c2c1nc(NC1CCCCC1)n2Cc1ccccc1
  A = -11%	B = 4	C = -0.8%	D = 1%

# Screening results deposited in PubChem by National Center for Advancing Translational Sciences (NCATS).
